# Screens: PubChem BioAssay, National Center for Advancing Translational Sciences (NCATS)
# GLA inh pH 4.5: alpha-galactosidase A (human) inhibition, pH 4.5; purified enzyme, 4-MU-alpha-Gal fluorescence, pH 4.5; activity change, negative = inhibition, % at 105 µM; 230,000 tested, under 10 active; inconclusive = small, poorly fitted or top-dose-only inhibition, or a rising curve; inactive = flat fitted curve, though single readings scatter; no compound was filed as active;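 also: 0% = full activity with enzyme and -100% = basal without enzyme; dose as in the result columns while the protocol names 77 µM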
# miR-21 FLuc: miR-21 reporter, rising signal. HeLa miR-21 FLuc reporter, luciferase, 48 h. Potency, µM (highest dose often 38.3 µM), inactives show top-dose reporter change, positive = more light. 340,000 tested, under 10 active. AID 2288; active = well fitted rising curve with a large enough effect; inconclusive = small, poorly fitted or top-dose-only effect; inactive = no such curve, though single readings can be large or run the other way;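 also: % of control where 0% means no effect; miR-21 action dims this reporter so a rising signal means less miR-21 action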
#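 HeLa miR-21-FLuc reporter line, endogenous miR-21; 2000 cells/well in DMEM/10% FBS; compound titration up to ~40uM final, 48 h, 37 degree Celsius; luciferase detection reagent, 15 min lysis, CCD luminescence.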
# Rango release inh: prevents RanGTP from dissociating the Rango-importin beta complex; Potency, µM (doses to about 46.1 µM), for the others: at the top dose activity change, negative = inhibition; O95149+P62826; hit rate 0.071% among 340,000; Biochemical FRET Rango-importin beta, RanGTP-induced dissociation; active means falling FRET ratio curve, often poorly fitted, with flat reads before Ran was added; inconclusive means other falling curves, or compound fluorescence or quenching; inactive means flat or rising ratio curve;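 also: potency is read from the fitted curve at half-maximal effect; % of control where 0% means no effect; nearly all actives have a fitted effect of over 45% in size; -100% = wells without RanGTP and RCC1; the record marks most hits as doubtful in a second field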
#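 Rango/importin beta premix (0.1/0.25 uM final), PBS + 1 mM DTT + 0.02% Tween-20 + 0.1% BSA; cpd 5 min RT; FRET pre-read; + RanGTP-RCC1 (0.6 uM Ran, 2 mM GTP, 0.2 uM RCC1); 45 min RT; FRET post-read, ex 430, em 486/530 nm.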
# Rango-impB inh: Rango-importin beta binding inhibition; Q14974; Rango CFP/YFP FRET sensor + importin beta, 45 min; Potency, µM (top dose mostly 92.2 µM), inactives show at the highest dose inhibition of complex formation; hit rate 0.031% among 340,000; AID 540263; active = rising FRET ratio curve, often small or poorly fitted; inconclusive = mostly compound fluorescence or quenching in the first reads; inactive = flat curves in all reads;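 also: potency is read from the fitted curve at half-maximal effect; 0% = DMSO wells and 100% = buffer wells lacking importin beta; nearly all actives have a fitted effect of over 15% in size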
# Target sequence (Q14974 whole entry, looked up): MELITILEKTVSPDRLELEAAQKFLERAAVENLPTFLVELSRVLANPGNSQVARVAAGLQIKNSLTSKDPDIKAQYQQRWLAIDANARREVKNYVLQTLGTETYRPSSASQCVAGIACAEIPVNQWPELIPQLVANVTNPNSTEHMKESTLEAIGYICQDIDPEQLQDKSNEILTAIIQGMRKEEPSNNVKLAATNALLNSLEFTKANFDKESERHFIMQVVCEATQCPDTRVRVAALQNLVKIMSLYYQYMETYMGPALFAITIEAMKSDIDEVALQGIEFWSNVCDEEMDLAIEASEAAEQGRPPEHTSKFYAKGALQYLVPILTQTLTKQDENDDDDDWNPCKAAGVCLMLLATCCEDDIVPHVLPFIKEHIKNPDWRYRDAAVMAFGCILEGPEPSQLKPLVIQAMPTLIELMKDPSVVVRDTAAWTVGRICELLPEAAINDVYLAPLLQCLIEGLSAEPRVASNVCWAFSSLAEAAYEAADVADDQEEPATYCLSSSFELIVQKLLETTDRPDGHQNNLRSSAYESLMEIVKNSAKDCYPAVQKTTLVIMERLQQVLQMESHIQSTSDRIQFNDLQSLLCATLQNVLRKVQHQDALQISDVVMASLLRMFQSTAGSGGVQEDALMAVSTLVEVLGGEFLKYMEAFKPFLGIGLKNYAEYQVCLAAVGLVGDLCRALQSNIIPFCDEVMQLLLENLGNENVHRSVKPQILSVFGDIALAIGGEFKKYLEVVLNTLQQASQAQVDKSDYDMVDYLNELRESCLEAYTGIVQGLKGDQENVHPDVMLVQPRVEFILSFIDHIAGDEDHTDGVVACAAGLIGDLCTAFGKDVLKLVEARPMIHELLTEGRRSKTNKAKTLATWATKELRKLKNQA
#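 FRET biosensor (snurportin 1 IBB flanked by EYFP and cerulean), 50 nM, with compound 5 min, then 0.125 microM importin beta in PBS, 1 mM DTT, 0.02% Tween-20, 0.1% BSA. CFP/YFP ratio read after 45 min at room temperature; pre-read flags interference.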
# Active calls of the source: *; u = inconclusive; x = not tested or not shown; & = joins results of further samples.
# Results follow in this order: GLA inh pH 4.5	miR-21 FLuc	Rango release inh	Rango-impB inh
1. O=C(NCc1ccco1)c1ccc2nc3sc4c(c3c(=O)n2c1)CCCC4
→ 2	-2%	x	x
2. Cc1ccc(C)c(NC(=O)CSc2nnc(CSc3nc(C)cc(C)n3)n2Cc2ccco2)c1
→ -9	-1%	4%	0.7%
3. O=C(NCC(c1ccco1)N1CCCCC1)c1ccc(COc2ccc(Cl)cc2)cc1 (stereo unspecified)
→ x	x	16%	-0.2%
4. COc1ccccc1CNC(=O)c1ccc(CS(=O)(=O)c2ccc(C)cc2)o1
→ x	0%	-3%	-2.2%
5. O=C(CSc1ncccn1)NC(=O)Nc1ccc2c(c1)OCCO2
→ -10	-26%	18%	-3.5%
6. CCn1c(=O)c(C(=O)NCc2ccc(OC)cc2)c(O)c2ccccc21
→ 0	-3%	11%	-0.2%
7. COc1ccc(NC(=O)CSc2c3c(nc4cc(Cl)ccc24)CCCC3)cc1OC
→ -5	-2%	-13%	6.3%
8. FC(F)(F)c1ccc(N/N=C/c2cccnc2)nc1
→ x	-47%	4%	1.5%
9. CCOC(=O)c1sc(N)c(C#N)c1CSc1nnc(C2CCCCC2)n1N
→ -20	3%	-18%	-0.1%
10. COC(=O)c1ccc[n+](CCc2c[nH]c3ccccc23)c1
→ x	x	-10%	-1.7%
11. CCn1c(N2CCN(C(=O)NC3CCCCC3)CC2)nc2ccccc21
→ -5	-7%	-23%	9.3%
12. Cc1cc(NC(=O)c2ccc3c(c2)OCCO3)no1
→ -2	u	0%	4.1%
13. CCC(C)NC(=S)NNC(=O)c1ccncc1 (stereo unspecified)
→ 1	2%	-5%	4.6%
14. O=C(NCCN1CCc2ccccc2C1)Nc1ccc([N+](=O)[O-])cc1
→ -4	8%	1%	0.5%
15. Cc1cccc(NC(=O)CNC(=O)CSc2nnc(C(F)(F)F)n2C)c1C
→ x	x	-29%	-0.8%
16. c1ccc(CNCC2COc3ccccc3O2)cc1 (stereo unspecified)
→ 2	-35%	u	u
17. CCCCn1c(N)c(N(CC)C(=O)c2cnc(C)cn2)c(=O)[nH]c1=O
→ x	x	29%	0.2%
18. c1ccc2c(CN3CCSCC3)cccc2c1
→ x	-2%	6%	-1.3%
19. COC(=O)N1C/C=C\C(c2ccc(OC)cc2)N(Cc2ccc(F)cc2)C(=O)C1 (stereo unspecified)
→ 1	4%	1%	0.8%
20. COc1ccccc1/C=C/C(=O)OCc1nc2ccccc2c(=O)[nH]1
→ 3	-14%	2%	-4.3%
21. Cc1cccc(NC(=O)CN(C)CC(=O)NC(c2ccccc2)c2ccccc2)c1C
→ x	x	3%	2.2%
22. COc1ccc(NC(=S)N2CCC(N(C)CCN3CCOCC3)CC2)cc1
→ 5	-7%	15%	u
23. COc1ccc(S(=O)(=O)N2CCC(C(N)=O)(N3CCCCC3)CC2)cc1OC
→ x	0%	0%	2.3%
24. C=C(C)c1cccc(C(C)(C)NC(=O)N2CCN(c3ccccc3OC)CC2)c1
→ 0	-1%	14%	4.0%
25. Cc1sc2c(c1C)C(=O)NC(c1ccccc1F)N2 (stereo unspecified)
→ -3	-62%	-9%	u
26. Cn1c(=O)[nH]c(=O)c2c1nc(Br)n2CCCO
→ x	-4%	-7%	0.8%
27. CS(=O)(=O)N1CCC(C(=O)Nc2cccc([N+](=O)[O-])c2)CC1
→ 2	-3%	-5%	0.0%
28. CCc1ccc(C(=O)NNc2cc(Cl)cc(Cl)c2)cc1
→ 0	-18%	2%	4.0%
29. O=C1NC(c2ccc(Cl)cc2)Nc2ccccc21 (stereo unspecified)
→ 3	13%	-4%	-1.1%
30. O=C(COC(=O)CNS(=O)(=O)c1ccc(Br)cc1Cl)Nc1ccc(N2CCOCC2)cc1
→ x	x	-13%	0.1%

# Some of these compounds in order of their number in Rango-impB inh, smallest number first.
No.	mol	Rango-impB inh
26	Cn1c(=O)[nH]c(=O)c2c1nc(Br)n2CCCO	0.8%
21	Cc1cccc(NC(=O)CN(C)CC(=O)NC(c2ccccc2)c2ccccc2)c1C	2.2%
28	CCc1ccc(C(=O)NNc2cc(Cl)cc(Cl)c2)cc1	4.0%

# (continued)
# Results follow in this order: GLA inh pH 4.5	miR-21 FLuc	Rango release inh	Rango-impB inh
31. NC(=O)c1c(NC(=O)CCCC(=O)O)sc2c1CCCCCC2
→ 7	-2%	-5%	-0.4%
32. Cc1ccc(C(=O)O/N=C(\c2ccccc2)c2cccnc2)cc1
→ 0	2%	4%	3.9%
33. O=C(Nc1ccc(F)cc1F)c1csc(-c2cccs2)n1
→ -11	-56%	25%	3.1%
34. COc1ccc(-c2csc(NC(=O)C3CSC4(C)CCC(=O)N34)n2)cc1 (stereo unspecified)
→ x	x	u	-2.7%
35. COc1ccc(N2CC(C(=O)Nc3ccccc3N3CCCC3)CC2=O)c(OC)c1 (stereo unspecified)
→ x	x	u	-3.1%
36. O=P(O)(CCc1ccncc1)CN1CCCCC1
→ -6	0%	-1%	3.6%
37. CC(CCc1ccccc1)NS(=O)(=O)c1ccccc1Cl (stereo unspecified)
→ x	11%	5%	-2.9%
38. Cc1ccc(C(=O)Nc2ccccc2-c2ccccc2)o1
→ 1	-10%	-6%	-5.3%
39. O=C(Nc1ccc(Cl)c(C(F)(F)F)c1)C1CCCN(S(=O)(=O)c2cnc[nH]2)C1 (stereo unspecified)
→ 3	9%	-13%	-0.3%
40. O=C(Nc1c(C(=O)O)[nH]c2ccc(F)cc12)c1cccc(C(F)(F)F)c1
→ -12	1%	-11%	4.5%

# Laid out differently: results already given.
cpd | Structure | GLA inh pH 4.5 | miR-21 FLuc | Rango release inh | Rango-impB inh
26 | Cn1c(=O)[nH]c(=O)c2c1nc(Br)n2CCCO | x | -4% | -7% | 0.8%
27 | CS(=O)(=O)N1CCC(C(=O)Nc2cccc([N+](=O)[O-])c2)CC1 | 2 | -3% | -5% | 0.0%
28 | CCc1ccc(C(=O)NNc2cc(Cl)cc(Cl)c2)cc1 | 0 | -18% | 2% | 4.0%
29 | O=C1NC(c2ccc(Cl)cc2)Nc2ccccc21 (stereo unspecified) | 3 | 13% | -4% | -1.1%
30 | O=C(COC(=O)CNS(=O)(=O)c1ccc(Br)cc1Cl)Nc1ccc(N2CCOCC2)cc1 | x | x | -13% | 0.1%
31 | NC(=O)c1c(NC(=O)CCCC(=O)O)sc2c1CCCCCC2 | 7 | -2% | -5% | -0.4%
32 | Cc1ccc(C(=O)O/N=C(\c2ccccc2)c2cccnc2)cc1 | 0 | 2% | 4% | 3.9%
33 | O=C(Nc1ccc(F)cc1F)c1csc(-c2cccs2)n1 | -11 | -56% | 25% | 3.1%
34 | COc1ccc(-c2csc(NC(=O)C3CSC4(C)CCC(=O)N34)n2)cc1 (stereo unspecified) | x | x | u | -2.7%
35 | COc1ccc(N2CC(C(=O)Nc3ccccc3N3CCCC3)CC2=O)c(OC)c1 (stereo unspecified) | x | x | u | -3.1%
36 | O=P(O)(CCc1ccncc1)CN1CCCCC1 | -6 | 0% | -1% | 3.6%
37 | CC(CCc1ccccc1)NS(=O)(=O)c1ccccc1Cl (stereo unspecified) | x | 11% | 5% | -2.9%
38 | Cc1ccc(C(=O)Nc2ccccc2-c2ccccc2)o1 | 1 | -10% | -6% | -5.3%
39 | O=C(Nc1ccc(Cl)c(C(F)(F)F)c1)C1CCCN(S(=O)(=O)c2cnc[nH]2)C1 (stereo unspecified) | 3 | 9% | -13% | -0.3%
40 | O=C(Nc1c(C(=O)O)[nH]c2ccc(F)cc12)c1cccc(C(F)(F)F)c1 | -12 | 1% | -11% | 4.5%

# Further records follow:
# Results follow in this order: GLA inh pH 4.5	miR-21 FLuc	Rango release inh	Rango-impB inh
41. CC(=O)NC1C(Oc2ccc(C=O)cc2)OC(COC(C)=O)C(OC(C)=O)C1OC(C)=O (stereo unspecified)
→ -1	10%	-14%	-0.3%
42. CCc1nnc(NC(=O)c2cccc(C(=O)Nc3nnc(CC)s3)n2)s1
→ 6	-1%	-5%	-0.3%
43. CC(Sc1nnc(Cc2ccccc2)n1C)C(=O)NC1CC1 (stereo unspecified)
→ x	x	13%	-2.6%
44. Cc1cc2ccccn2c1C(=O)c1ccc(Cl)cc1
→ 6	-14%	1%	8.3%
45. CCN(CC)S(=O)(=O)c1ccc(N/N=C/c2cc(OC)ccc2O)nc1
→ -6	15%	3%	-0.6%
46. Fc1ccc(-c2nnn3c2nc(NCc2ccccc2)c2ccccc23)cc1
→ 4	-9%&-6%	-9%	0.0%
47. N#Cc1c(N2CCCC2)nc(N)c2c(N)nc(N3CCCC3)cc12
→ 10	-34%	-29%	u
48. Cc1cc(C)n(-c2ncnc3sc4c(c23)CCCC4)n1
→ 4	-5%	-5%	1.4%
49. Cc1c(C(=O)OCC(=O)N2CCCC2=O)oc2ccccc12
→ x	x	40%	-2.1%
50. CCC(C)(C)n1nnnc1C(c1ccc2ncccc2c1)N1CCN(c2nc3ccccc3s2)CC1 (stereo unspecified)
→ -13	14%	2%	3.0%
51. COc1ccc(S(=O)(=O)N(CC(=O)N2CCOCC2)Cc2ccccc2)cc1
→ -2	-13%	7%	1.8%
52. COc1ccc(C2Nc3ccccc3C(=O)N2Cc2ccccc2)cc1CN1CCOCC1 (stereo unspecified)
→ 1	7%	-7%	0.1%
53. Cc1nc2nc(NC(=O)c3ccco3)nn2c(C)c1Cl
→ x	-17%	-3%	-0.2%
54. Cc1ccc(N(Cc2ccc(C(=O)NCC3CCCO3)cc2)S(C)(=O)=O)cc1C (stereo unspecified)
→ 7	-1%	2%	0.5%
55. Cc1cccc(-c2nc(NCCCN3CCOCC3)c3ccccc3n2)c1
→ -17	11%	-14%	2.1%
56. O=C(C1CCC(Cn2c(=O)[nH]c3ccccc3c2=O)CC1)N1CCN(c2ccccc2)CC1 (stereo unspecified)
→ 2	-6%	8%	-0.3%
57. O=C(NNC(=O)c1ccc2ccccc2c1)c1cccc(Cl)c1
→ x	x	1%	-1.4%
58. O=C(Nc1ccc2c(c1)OCO2)c1cc(-c2cccc(O)c2)on1
→ x	-23%	-7%	-0.8%
59. COc1ccc(-c2noc(C3CCCN(C(=O)c4ccccc4)C3)n2)cc1 (stereo unspecified)
→ 4	-10%	19%	0.0%
60. CSc1ccc(/C=C(\NC(=O)c2ccc(C)cc2)C(=O)Nc2cccc(C)c2)cc1
→ 4	-4%	4%	-2.1%
61. CC(=O)c1cccc(NC(=O)CCNS(=O)(=O)c2cccc3nonc23)c1
→ 5	0%	-6%	0.1%
62. Cc1cc(C)c(S(=O)(=O)c2ccccc2C(C)C)c(=O)[nH]1
→ x	-2%	-8%	-1.6%
63. Cc1ccc(Cn2ccc(=O)c(OCc3ccccc3)c2C)cc1
→ -2	-41%	-8%	-0.7%
64. COc1ccc(OC)c(Nc2nc(C)nc3c2oc2ccccc23)c1
→ x	-1%	-1%	-1.4%
65. COCCn1cc(C(=O)NCc2cccs2)c2c3ccccc3n(C)c2c1=O
→ 3	0%	24%	u
66. Cc1cccc(NC(=O)CSc2nnc(Cn3cnc4ccccc43)o2)c1
→ -2	-4%	-5%	-0.9%
67. COc1ccc(/C=C/C(=O)c2ccc([N+](=O)[O-])o2)cc1OC
→ x	x	9%	u
68. COc1ccc2c(c1)O/C(=C\c1ccccc1C)C2=O
→ x	-36%	0%	-1.2%
69. CCOC(=O)C1CCCN(C(=O)CN2CCN(Cc3ccc(Cl)cc3)C2=O)C1 (stereo unspecified)
→ -1	5%	-17%	-3.8%
70. Cc1cccc(NC(=O)COc2coc(CN3CCN(c4ccccc4)CC3)cc2=O)c1C
→ x	x	7%	0.6%
71. O=C(Nc1ccncc1)C1(c2ccccc2)CCCC1
→ 1	-1%	u	u
72. CCOc1cccc(-c2c(C(=O)N/N=C(\C)c3ccncc3)nnn2-c2nonc2N)c1
→ x	-1%	-8%	-2.7%
73. COc1cccc(N(CC(=O)Nc2cccc(F)c2)S(C)(=O)=O)c1
→ 0	-5%	14%	0.1%
74. CCOC(=O)N1CCN(C(=O)C2CC(=O)N(c3ccc(OC)cc3)C2c2ccc(OC)cc2)CC1 (stereo unspecified)
→ 0	-9%	13%	1.7%

# An excerpt. The share of hits here may be higher or lower than overall.
